Source: PubChem BioAssay
HNF4A DNA FP – change in binding of human HNF4 alpha to DNA; HNF4a-FITC DNA binding, fluorescence polarization, 1 h; P41235; activity change, % at 10 µM; actives 0.3% (n = 360,000); AID 1224865; in the data active means activity change above about 30%, passing the limit was not always enough;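 further: controls were the assay level and a saturating level of protein; the project sought stronger binding though the title names inhibitors; some compounds called inactive have numbers as strong as hits; positive values seem to mean higher polarization but the record does not say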
Target sequence (P41235 whole entry, looked up): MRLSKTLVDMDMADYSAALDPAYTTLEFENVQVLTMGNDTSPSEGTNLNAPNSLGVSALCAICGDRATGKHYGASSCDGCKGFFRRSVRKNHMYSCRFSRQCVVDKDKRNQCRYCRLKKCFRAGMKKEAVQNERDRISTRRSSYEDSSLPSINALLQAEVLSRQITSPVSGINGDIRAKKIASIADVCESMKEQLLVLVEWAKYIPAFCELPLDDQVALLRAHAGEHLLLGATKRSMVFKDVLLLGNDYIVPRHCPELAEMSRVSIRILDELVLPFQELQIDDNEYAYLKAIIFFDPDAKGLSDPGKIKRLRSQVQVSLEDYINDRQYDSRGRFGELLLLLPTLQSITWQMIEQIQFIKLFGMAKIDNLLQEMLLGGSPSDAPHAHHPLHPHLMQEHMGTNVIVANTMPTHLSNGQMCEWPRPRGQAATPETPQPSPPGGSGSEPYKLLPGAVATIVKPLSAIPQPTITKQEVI
Calb FLC – affects C. albicans growth with fluconazole | C. albicans CaCi-2 (fluconazole-resistant clinical isolate) + fluconazole, Alamar Blue growth, 48 h | actives 0.57% (n = 300,000) | growth inhibition, % (concentration not given with the values);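 active means most replicates above 75%; inconclusive means exactly half above 75%; inactive means most below 75%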;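 further: all wells also contain fluconazole at 8 µg/ml as a sub-toxic cotreatment; 0% = median of DMSO wells and 100% = median of geldanamycin control wells; wells of about 8 µL received 7.5 nL stock; the first replicate is given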
RanGTP-Imp inh – inhibitors of RanGTP-importin-beta interaction, primary screen, biochemical, FRET, CFP-Ran, YFP-importin-beta, homogeneous; AID 2216; cell-free CFP-Ran/YFP-importin-beta FRET ratio; inhibition, % (test concentration not listed); actives 1.1% (n = 300,000);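 active means most replicates above 15%; inconclusive means exactly half above 15%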;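 further: 0% = DMSO wells and 100% = Ran loaded with GDP instead of GTP; wells of about 40 µL received 100 nL stock; the first replicate is given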
ALR inh – inhibitors of human sulfhydryl oxidase ALR | inhibition, % (test concentration not listed) | purified ALR, DTT oxidation, H2O2 HRP-luminol luminescence | AID 485317 | actives 3.8% (n = 290,000);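 active means mean and each replicate at 75% or more; inconclusive means only one of the two met; inactive means neither met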;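 further: stock transfer was 7.5 nL into about 7.5 µL; 0% = neutral wells and 100% = wells with inactivated enzyme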
Target sequence (P55789 whole entry, looked up): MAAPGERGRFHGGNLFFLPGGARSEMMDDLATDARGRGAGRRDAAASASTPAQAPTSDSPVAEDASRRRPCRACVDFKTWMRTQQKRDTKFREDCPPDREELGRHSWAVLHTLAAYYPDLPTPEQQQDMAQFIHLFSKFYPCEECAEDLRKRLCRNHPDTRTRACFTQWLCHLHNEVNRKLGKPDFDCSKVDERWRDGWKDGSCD
Vif A3G – inhibitors of Vif binding to APOBEC3G peptide, primary screen, biochemical, TR-FRET, GST-Vif 1-94, biotin-A3G peptide, dose response retest (AID 1117319); TR-FRET GST-Vif / biotin-A3G peptide binding; higher % means a stronger effect; test concentration not given here; strong numbers were not always called active; one-dose inhibition, %; IC50 in µM for titrated hits; actives 0.57% (n = 260,000);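 active means above the screen mean plus three standard deviations and confirmed in dose response; inconclusive means results disagree or hit not tested in dose response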;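 further: Vif residues 1-94 fused to GST binding biotinylated APOBEC3G peptide 110-148; 0% = full assay without inhibitor and 100% = GST in place of GST-Vif; retest series ran down from 100 µM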
LANA-H2B inh – blocks KSHV LANA binding to histone H2A/H2B; Q9QR71; cell-free LANA-H2A/H2B peptide, fluorescence polarization; inhibition, % (no concentration beside the values); actives 0.6% (n = 320,000); in the data active means inhibition mostly above about 10%, no sharp cut-off; inactive means mostly below about 6.7%;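 further: stock transfer was 7.5 nL into about 10 µL; 0% = median of vehicle wells and 100% = median of positive control wells; one replicate is shown; the record names a cut of 25% in any replicate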
Beta2AR agonist – agonists of human beta-2 adrenergic receptor inducing internalization. Am2.2-beta2AR cells, FAP receptor internalization, flow cytometry; reference of the scale not given here. response, % (test concentration not listed). actives 0.43% (n = 340,000). AID 504454;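 active means response above a set limit, near 3 SD of response in nonfluorescent compounds, cut at about 42% in these data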;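 further: stock transfer was 100 nL into about 11 µL; a reference agonist was the positive control; negative values mostly stem from fluorescent compounds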
Target sequence (P07550 whole entry, looked up): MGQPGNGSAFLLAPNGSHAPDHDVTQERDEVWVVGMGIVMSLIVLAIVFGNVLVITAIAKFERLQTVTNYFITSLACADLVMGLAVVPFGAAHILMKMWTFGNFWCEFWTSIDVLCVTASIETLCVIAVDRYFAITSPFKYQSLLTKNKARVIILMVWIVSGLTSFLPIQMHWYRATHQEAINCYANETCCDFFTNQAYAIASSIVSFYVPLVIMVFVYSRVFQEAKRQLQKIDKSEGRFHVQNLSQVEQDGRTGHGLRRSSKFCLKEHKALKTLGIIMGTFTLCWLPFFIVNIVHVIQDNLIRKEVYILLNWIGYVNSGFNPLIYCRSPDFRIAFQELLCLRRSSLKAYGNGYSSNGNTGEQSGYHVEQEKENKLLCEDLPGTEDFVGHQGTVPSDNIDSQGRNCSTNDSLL
An asterisk follows results filed as active; ? = inconclusive; · = no result given. Hits appear at their usual frequency. Share with any hit: about 6.3%.

SMILES	HNF4A DNA FP	Calb FLC	RanGTP-Imp inh	ALR inh	Vif A3G	LANA-H2B inh	Beta2AR agonist
Cc1cc(C)c(NC(=O)Cn2c(=O)n(-c3ccc(CC(=O)NCC4CCCO4)cc3)c(=O)c3ccccc32)c(C)c1 (stereo not given)	-4.4	-6	6.9	3	16%	-5.7	-1
O=C(CCCOc1ccc(Cl)cc1Cl)Nc1ccccc1C(=O)O	1.7	25	-5.8	22	-1%	-1.7	2
NS(=O)(=O)c1ccc(NC(=O)CSc2ncccn2)cc1	-5.4	-7	?	0	-5%	-1.0	-6
COc1ccc(NC(=O)CC2C(=O)N(c3cccc(OC)c3)C(=O)N2C(C)C)cc1 (stereo not given)	5.7	0	2.3	-7	6%	-0.6	3
O=C(NCCCn1ccnc1)c1cc(Br)c(Br)s1	1.3	0	2.5	-2	-15%	-5.4	4
Cc1nc(SCC(=O)N2CCOCC2)c2c3c(sc2n1)CCC3	1.7	·	·	1	0%	1.6	-8
CCOc1ccccc1NC(=O)CCCNC(=O)Cn1cnc2sc(C)c(C)c2c1=O	-1.6	6	0.7	0	·	0.8	-20
O=C(O)c1cccc(-n2c(-c3cnccn3)n[nH]c2=S)c1	5.3	1	6.4	27	-3%	-0.2	7
COc1ccc(C2NC(=O)NC3=C2C(=O)CCC3)cc1 (stereo not given)	-1.2	8	2.8	-21	·	3.1	-5
Cc1cccc(NC(=S)N2CCC(N(C)CC3CCCO3)CC2)c1C (stereo not given)	2.2	-1	3.4	-8	-4%	-50	4
COc1cccc(O)c1CN1CCCC(C(=O)c2cccc(C(F)(F)F)c2)C1 (stereo not given)	1.7	6	-0.8	10	9%	-6.5	2
O=c1ccc(Cl)nn1-c1ccccc1	-1.7	18	1.5	-14	·	-6.3	-6
COc1ccc(-n2ncc3c2CC(C)(C)CC3NC(=O)CCN2CCCC2=O)cc1 (stereo not given)	6.6	1	0.4	-11	·	-0.3	-3
Cc1ccc(C2(C(F)(F)F)NC(=O)N3CCCN=C3S2)cc1 (stereo not given)	2.6	-9	0.7	-7	3%	1.5	0
CC(C)(C)NCc1ccc(OCc2cccs2)cc1	2.9	-9	·	·	30%	-6.4	6
Oc1ccccc1C=NCCN=Cc1ccccc1O	0.2	-8	-1.8	-5	?	2.6	-3
Cn1nc(C(=O)OCC(=O)Nc2ccccc2OC(F)F)c2ccccc2c1=O	-5.2	·	·	-5	·	1.8	5
Cc1ccc(CC2(OCCN(C)C)CCC(C(C)(C)C)CC2)cc1 (stereo not given)	-2.3	·	·	·	3%	·	8
CN(C)C(=O)COc1ccc(S(=O)(=O)c2ccc(OCC(=O)N(C)C)cc2)cc1	-1.1	-4	-3.9	-53	·	-1.6	8
COc1ccc(-c2cc(C(=O)N(C)CC(=O)Nc3cccc(F)c3)c3ccccc3n2)cc1	-1.7	6	-0.7	-3	-6%	-5.0	20
Cc1ccc(-n2nc3c(=O)n(CCCC(=O)N4CCCCC4)nc(C)c3c2C)cc1	-5.5	-13	-2.5	-3	0%	-0.1	-3
CC1Cc2ccccc2N1C(=O)COc1nc2ccccc2nc1N1CCOCC1 (stereo not given)	4.4	18	1.5	·	0%	5.2	4
CCOC(=O)c1cccc(NC(=O)c2ccc(F)cc2F)c1	7.0	5	-2.8	6	·	0.1	-4
COc1ccc(S(=O)(=O)NCc2ccc(C(=O)NCCCN3CC(C)CC(C)C3)cc2)cc1 (stereo not given)	-3.4	8	-0.1	-2	·	6.2	5
COC(=O)C1=C(C)NC(=O)NC1c1cccc(OC)c1OCc1ccccc1 (stereo not given)	-0.2	4	2.6	-4	2%	-1.5	0

Next part
SMILES	HNF4A DNA FP	Calb FLC	RanGTP-Imp inh	ALR inh	Vif A3G	LANA-H2B inh	Beta2AR agonist
c1ccc(Cn2nnc(-c3ccccc3)n2)cc1	-0.5	0	?	·	-5%	-2.5	-6
CCCCOC(=O)Nc1ccc(S(=O)(=O)Nc2nccs2)cc1	-2.6	-6	3.6	-15	2%	-2.6	2
CCc1cc(=O)oc2cc(C)cc(OCC(=O)N[C@@H](CSCc3ccccc3)C(=O)O)c12	3.7	-4	2.1	3	·	-0.4	-6
COc1ccc(CN2CCC(CNS(=O)(=O)c3cccc(C(F)(F)F)c3)CC2)cc1	1.1	-10	-0.4	·	·	-2.4	5
CC(NC(=O)CSc1nnc(-c2cccc(S(=O)(=O)N3CCCCC3)c2)o1)C12CC3CC(CC(C3)C1)C2 (stereo not given)	1.6	2	2.6	4	-1%	-7.5	4
O=C(Cc1ccccc1F)c1ccc(O)cc1O	1.2	?	0.1	2	?	-4.1	9
Cc1cc(C)n2nc(C(=O)Nc3ccc(S(=O)(=O)N4CCCC4)cc3)nc2n1	0.7	6	2.0	0	6%	-1.0	46*
COc1ccc(C(CNC(=O)C2CC(=O)N(Cc3ccc(C)cc3)C2)N(C)C)cc1 (stereo not given)	0.4	-7	1.2	27	-5%	7.6	-3
O=C(CNC(=O)c1cccnc1)N=Nc1c(O)[nH]c2c(Br)cc(Br)cc12	-0.1	·	4.8	2	·	1.3	2
CCN(CC)S(=O)(=O)c1ccc(N2CCOCC2)c(NC(=O)C23CC4CC(CC(Cl)(C4)C2)C3)c1	0.8	3	-1.7	-5	15%	-9.3	10
Cc1ccc(C)c(S(=O)(=O)Nc2nc3ccc(S(N)(=O)=O)cc3s2)c1	-2.8	11	-1.5	1	17%	3.3	1
CCOC(=O)CC(NC(=O)c1ccc(C)cc1)c1ccc(C)cc1 (stereo not given)	-0.3	-4	0.7	-8	20%	-3.0	4
Cc1ccc(C)c(S(=O)(=O)c2c[nH]c(=S)[nH]c2=O)c1	3.4	11	2.9	25	-1%	-3.1	-1
COc1ccc(N2C(=O)CC(c3ccccc3)CC2=O)cc1	-2.6	·	·	4	·	2.2	2
COc1ccc(CNC(=O)CSc2nc3ccc(C)cc3[nH]2)cc1	-0.4	-2	1.8	-2	5%	0.3	4
CSc1ccccc1C(=O)Nc1cc(C)cc(C)c1	-0.5	-3	-0.4	-2	-1%	2.0	2
COc1ccccc1/C=C/C(=O)Nc1cccc(S(=O)(=O)N2CCOCC2)c1	2.5	·	·	·	-15%	·	9
CCOc1ccc(S(=O)(=O)Nc2cc(OC)c(OC)cc2C(=O)O)cc1	-5.6	3	1.3	0	5%	-1.6	-4
COc1ccc(-n2nc(C(=O)NCC(=O)N(C)Cc3ccccc3)c3ccccc3c2=O)c(OC)c1	1.3	57	5.1	9	·	-5.3	8
Cn1c(CSCc2ccc(Cl)cc2)nnc1SCC(=O)Nc1nc2ccccc2s1	-0.4	-19	3.3	9	8%	0.7	0
COc1cccc(-c2cc3nc(-c4ccccc4)cc(=O)n3[nH]2)c1	-1.2	6	1.9	-3	·	6.0	-17
c1ccc(-c2ccc(CN3C[C@@H]4C(c5ccccc5)C5(c6ccccc6)CC4(C5)[C@H]3c3ccccc3)cc2)cc1 (stereo not given in full)	7.0	-3	0.2	·	·	-3.3	-4
CCN(c1ccccc1)S(=O)(=O)c1ccc(OC)c(NC(=O)C2CC2)c1	1.6	·	·	-1	-1%	4.5	-10
COC(=O)NNC(=O)c1ccccc1OC	-2.4	-3	2.9	1	·	-7.6	0
CC(=O)Nc1ccc(S(=O)(=O)NC2C3(C)CCC(C3)C2(C)C)cc1 (stereo not given)	1.4	-6	-2.6	0	·	2.2	5

Next section:
SMILES	HNF4A DNA FP	Calb FLC	RanGTP-Imp inh	ALR inh	Vif A3G	LANA-H2B inh	Beta2AR agonist
O=C(Nc1cccc2ccccc12)NC1CCS(=O)(=O)C1 (stereo not given)	-1.7	16	-3.4	-18	·	-6.5	7
Cc1noc(C)c1COc1ncnc2ccccc12	3.8	0	-1.4	-9	-9%	2.0	3
COc1ccc(NS(=O)(=O)c2ccc(C)c(NC(=O)C3CCCO3)c2)cc1 (stereo not given)	-0.8	·	·	·	·	-10	-2
Cc1cc(C)c2cc(C(=O)N3CCC(C(=O)c4ccc(F)cc4)CC3)[nH]c2c1	1.2	-4	-3.9	·	·	0.6	6
CCOc1ccc(CNC(=O)c2cc3oc4ccccc4c3n2C)cc1	-0.1	-7	-3.4	-6	-21%	4.5	-7
Cc1ccc(C(c2nnnn2CCC(C)C)N2CCN(C)CC2)cc1 (stereo not given)	1.2	·	-5.8	-5	-2%	-2.7	-4
CN(Cc1ccccc1)CC(O)COc1ccc(CNCCOc2cccnc2)cc1 (stereo not given)	0.1	-19	0.2	0	7%	-0.2	-2
CC(=O)c1cccc(NC(=O)CN(C)Cc2ccc(OC(F)F)cc2)c1	1.6	1	-0.2	2	·	1.5	-4
COc1cccc(-c2nn3c(-c4ccccn4)nnc3s2)c1	5.2	30	4.0	-3	81µM*	-2.9	-16
CN(C)NC(=O)c1csnc1-c1c(Cl)cccc1Cl	-1.0	9	-1.6	9	-7%	1.1	1
COc1cc(NC(=O)CN2C(=O)NC(C)(c3ccc(OC(F)F)cc3)C2=O)cc(OC)c1OC (stereo not given)	1.0	0	0.2	0	·	0.6	-1
CCc1c(C)nc2cc(-c3cc(OC)cc(OC)c3)nn2c1N1CCCC1	0.5	5	-6.9	-10	-3%	1.6	15
CCc1ccc(C2C(C#N)=C(N)N(N(C)C)C3=C2C(=O)CCC3)cc1 (stereo not given)	3.9	-6	0.7	-47	-1%	-0.8	0
Cc1ccc(Cn2cnc3c(cnn3C(C)(C)C)c2=O)cc1	-3.9	-14	1.2	-16	1%	-4.1	-5
COc1ccc(-c2cc(C)no2)cc1S(=O)(=O)N1CCCN(Cc2ccc(F)cc2)C1	-3.5	-11	1.0	-6	5%	-0.7	-9
Cc1ccc(S(=O)(=O)c2cc3c(=O)n4ccccc4nc3n(CCCN3CCOCC3)c2=N)cc1C	-0.6	-1	135*	-3	·	1.8	13
COc1ccccc1CCNC(=O)C(=O)NCC1OCCN1S(=O)(=O)c1ccc(OC)c(OC)c1 (stereo not given)	-2.7	7	0.0	1	·	-3.6	8
O=C(Nc1ccc(S(=O)(=O)N2CCOCC2)cc1)c1ccc(=O)[nH]c1	·	1	-0.1	0	?	-0.4	·
CN1C(=O)S/C(=C/c2ccc(OCc3cccc(C(=O)O)c3)cc2)C1=O	0.8	9	0.0	-8	-4%	3.3	7
O=C(c1nc2ccc(Cl)cn2c1CNCCn1ccnc1)N1CCCCCCC1	1.9	17	-1.5	-1	5%	3.1	6
Cc1ccc(SCC(=O)N(C)C2CCS(=O)(=O)C2)c(C)c1 (stereo not given)	-0.6	·	·	-1	1%	4.7	-3
Cc1nnc(NC(=O)CSc2nnc(CNC(=O)c3ccccc3)n2-c2ccccc2)s1	1.2	9	-0.2	-15	1%	-6.3	-5
CCOP(=O)(OCC)/C(C#N)=C/c1c[nH]c2ccccc12	-0.2	7	-2.5	3	·	4.3	5
Cc1ccc(-n2c(=O)cc(N3CCCCCC3)[nH]c2=O)cc1	-0.4	8	2.8	15	2%	-3.7	1
O=C(O)CCN(CCC(=O)O)c1ccccc1	2.7	2	-0.6	12	9%	-6.6	0

3 consecutive records out of the list so far:
SMILES	HNF4A DNA FP	Calb FLC	RanGTP-Imp inh	ALR inh	Vif A3G	LANA-H2B inh	Beta2AR agonist
O=C(Nc1cccc2ccccc12)NC1CCS(=O)(=O)C1 (stereo not given)	-1.7	16	-3.4	-18	·	-6.5	7
Cc1noc(C)c1COc1ncnc2ccccc12	3.8	0	-1.4	-9	-9%	2.0	3
COc1ccc(NS(=O)(=O)c2ccc(C)c(NC(=O)C3CCCO3)c2)cc1 (stereo not given)	-0.8	·	·	·	·	-10	-2

In a second layout: results already given
mol,HNF4A DNA FP,Calb FLC,RanGTP-Imp inh,ALR inh,Vif A3G,LANA-H2B inh,Beta2AR agonist
COc1cccc(-c2nn3c(-c4ccccn4)nnc3s2)c1,5.2,30,4.0,-3,81µM*,-2.9,-16
CN(C)NC(=O)c1csnc1-c1c(Cl)cccc1Cl,-1.0,9,-1.6,9,-7%,1.1,1
